Bioassay records (PubChem BioAssay)
Cruzain inh Det: blocks cruzain activity in presence of Triton detergent | 0.43% of 200,000 active | AID 1478 | P25779 | purified cruzain, Z-FR-AMC fluorescence, 0.01% Triton | Potency, µM, for the others: max response, negative = inhibition, usual class: inhibitors;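 also: plate controls were neutral wells for no effect and buffer without enzyme for full effect; nearly all actives have a fitted effect of over 40% in size; top concentration of the series not given in the record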
Target sequence (P25779 123-467 limits assumed): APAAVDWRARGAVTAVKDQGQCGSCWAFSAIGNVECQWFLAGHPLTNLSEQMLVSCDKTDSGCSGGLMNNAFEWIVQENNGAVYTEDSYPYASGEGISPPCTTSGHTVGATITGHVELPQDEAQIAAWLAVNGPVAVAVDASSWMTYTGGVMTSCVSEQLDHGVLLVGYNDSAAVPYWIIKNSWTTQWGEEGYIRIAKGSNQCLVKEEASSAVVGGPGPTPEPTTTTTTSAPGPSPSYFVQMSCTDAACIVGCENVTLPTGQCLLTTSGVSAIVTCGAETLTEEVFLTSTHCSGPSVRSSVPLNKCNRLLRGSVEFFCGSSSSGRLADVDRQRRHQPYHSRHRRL
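Z-FR-AMC hydrolysis (2 uM substrate) by cruzain (1.5 nM) monitored kinetically at ex 360/em 450 nm after 15 min room-temperature compound exposure; 0.01% Triton X-100, pH 5.5, 5 mM DTT.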
Cruzain noTriton: inhibitors of Trypanosoma cruzi cruzain without detergent. 2.3% of 200,000 active. purified cruzain, Z-FR-AMC fluorescence, no detergent. AID 1476. P25779. Potency, µM, without a hit: max response, negative = inhibition, actives largely listed as inhibitors;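 also: plate controls were enzyme without inhibitor for no effect and buffer without enzyme for full effect; nearly all actives have a fitted effect of over 40% in size; top concentration of the series not given in the record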
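Detergent-free condition (0.00005% Triton X-100) in acetate buffer pH 5.5 with DTT. 1.5 nM enzyme and compound were pre-mixed 15 min, then 2 uM Z-FR-AMC substrate added; reaction progress from fluorescence change between first and third reads (60 s).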
NS1 function inh: influenza NS1 inhibition | S. cerevisiae slowed by influenza A NS1, growth recovery by OD600 | Potency, µM (titrated, usually from 46.1 µM), inactives show at the top dose activity, positive = more growth | 0.4% of 270,000 active | AID 2326; active means well fitted rising curve with a large enough effect; inconclusive means small, poorly fitted or top-dose-only effect; inactive means no such curve, though single readings can be large or run the other way; also: nearly all actives have a fitted effect of over 50% in size
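S. cerevisiae expressing influenza A NS1, grown in glucose, washed, then diluted 1:100 into pH 6.0 -URA galactose medium with 23 nl compound. Growth recovery read as OD600; NS1-free strain serves as control.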
Lassa entry inh: inhibitors of Lassa virus binding or cell entry. Lassa virus pseudotype entry inhibition, cell reporter; control for the full effect not named in the record. 1.2% of 300,000 active. Potency, µM (series often up to 37.9 µM), inactives show at the highest dose activity change, negative = inhibition, usual class: inhibitors; active means well fitted inhibition curve with a large enough effect; inconclusive means small, poorly fitted or top-dose-only effect, or effect the other way; inactive means flat fitted curve, though single readings scatter; tested in HEK293 cells; also: % is scaled to controls: 0 for no effect and ±100 for the full control effect; nearly all actives have a fitted effect of over 50% in size; luciferase read-out
RE007 growth inh: less growth of the S. pombe RE007 Vpr strain. S. pombe RE007 Vpr strain, BacTiter-Glo ATP luminescence, 24 h; control for the full effect not named in the record. 0.21% of 360,000 active. AID 651644. Potency, µM (doses to about 92.2 µM), for inactives: at the highest dose activity change, negative = less growth; active = well fitted falling curve with a large enough effect; inconclusive = small, poorly fitted or top-dose-only effect; inactive = no such curve, though single readings can be large or run the other way;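 also: % is scaled to controls: 0 for no effect and ±100 for the full control effect; nearly all actives have a fitted effect of over 50% in size; the assay follows cell death caused by Vpr and the record does not say whether a fall means rescue or toxicity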
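Fission yeast RE007 carrying one integrated HIV-1 vpr copy, seeded at OD 0.01 in PMG+AL medium with 23 nL pinned compound. Grown 24 h at 30 degrees; viability read by BacTiter-Glo luminescence after 5 min.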
MARV entry inh: inhibitors of Marburg virus binding or cell entry. Marburg virus pseudotyped entry inhibition, cell reporter; control for the full effect not named in the record; about a third of the inactives were read at about 46 µM. Potency, µM (doses to about 37.8 µM), inactives show top-dose activity change, negative = inhibition, actives largely listed as inhibitors. 1.8% of 300,000 active. AID 540276; active = well fitted inhibition curve with a large enough effect; inconclusive = small, poorly fitted or top-dose-only effect, or effect the other way; inactive = flat fitted curve, though single readings scatter; tested in HEK293 cells; about a fifth of its hits are not listed in these tables; also: % is scaled to controls: 0 for no effect and ±100 for the full control effect; luciferase read-out
2A StopGo: lowers the luciferase signal of an FMDV 2A StopGo reporter; human cells with a luciferase reporter of 2A StopGo recoding; control for the full effect not named in the record; Potency, µM (titrated, usually from 57.9 µM), for the others: top-dose signal change, negative = less light; 1.2% of 410,000 active; active = well fitted falling curve with a large enough effect; inconclusive = small, poorly fitted or top-dose-only effect; inactive = no such curve, though single readings can be large or run the other way; tested in HEK293T cells; also: % is scaled to controls: 0 for no effect and ±100 for the full control effect; nearly all actives have a fitted effect of over 45% in size; luciferase light after 4 h
SARS PLpro yeast: inhibitors of SARS-CoV papain-like protease in yeast | S. cerevisiae expressing SARS-CoV PLpro, growth rescue; control for the full effect not named in the record | Potency, µM (series often up to 32.9 µM), for inactives: at the highest dose activity, positive = growth rescue | 0.19% of 330,000 active | AID 485353; active means well fitted rising curve with a large enough effect; inconclusive means small, poorly fitted or top-dose-only effect; inactive means no such curve, though single readings can be large or run the other way; also: 0% is about no effect; nearly all actives have a fitted effect of over 55% in size; growth read by luminescence after 48 h
Active calls of the source: *; ? = inconclusive; · = not tested or not shown; & = joins results of further samples; [ ] = remark or other dose. Unless noted, calls follow the shape of the dose curve; as a rule, active = well fitted curve in the direction sought with a large enough effect; inconclusive = small, poorly fitted or top-dose-only effect, or another doubt; inactive = no such curve, though single readings can be large; an effect the other way counts as inactive or inconclusive. Potency is read from the fitted curve at half-maximal effect. No enrichment for hits, and some 4.7% of all compounds hit somewhere here.

#	Molecule	Cruzain inh Det	Cruzain noTriton	NS1 function inh	Lassa entry inh	RE007 growth inh	MARV entry inh	2A StopGo	SARS PLpro yeast
1	CCN(c1ccc(Cl)cc1)S(=O)(=O)c1nnc(NC(=O)c2ccco2)s1	-2.7%	3%	·	?	·	·	1%	·
2	O=C(O)c1ccc(CNc2ccccc2C(=O)O)cc1	0.6%	-10%	3%	3%	13%	8%	-18%	0%
3	CCC(=O)N1CC(=O)Nc2ccc(Cl)cc2C1c1ccc(F)cc1 (centres undefined)	3.8%	1%	-3%	-5%	18%	0%	-8%	0%
4	Nc1c(-c2ccc(Cl)cc2)cnn1-c1cccc(C(F)(F)F)c1	-11%	6%	-51%	22%	-5%	?	7%	2%
5	CN(Cc1nc(-c2ccncc2)no1)S(=O)(=O)c1ccc(Cl)cc1	-1.2%	-10%	-24%	-6%[14.3 µM]	0%	-30%	?	-1%
6	O=C(CCNc1cccc(Cl)c1)c1cccs1	4.2%	1%	-51%	18%	?	13%	38%[activator]	-20%
7	CCOc1ccccc1CNC(=O)CCc1cn(CC)c2ccccc12	·	·	-1%	·	-14%	·	-23%	-2%
8	CN1CCC(O)(c2ccccc2)C(C(=O)c2ccccc2)C1 (centres undefined)	-2.1%	5%	-8%	8%	-14%	-9%&-9%	-17%	-2%
9	O=S(=O)(Nc1cccc(F)c1)c1cccc2nsnc12	·	·	-7%	·	-4%	·	29%	-1%
10	COc1ccc(NC(=O)NNC(=O)c2ccc3ccccc3c2)cc1OC	·	·	2%	2%	4%	-15%	-3%	-2%
11	COc1ccc(NC(=O)C(CC(=O)O)Cc2ccc(Br)cc2)cc1 (centres undefined)	·	·	12%	?	-4%	4%[46.1 µM]	-20%	-3%
12	Cc1ccc(NC(=O)CSC2=C(C#N)C(c3ccco3)C3=C(CCCC3=O)N2)cc1 (centres undefined)	-7.9%	5%	?	?	21%	?	-5%	3%
13	CCCCCOC(=O)C1=C(C)Nc2nnnn2C1c1ccccc1Cl (centres undefined)	-12%	15%	-9%	?	?	-15%[46.1 µM]	?	-14%
14	CC(C)C(=O)c1cc2c(cc1NC(=O)c1ccccc1)OCCO2	-10.0%	13%	-3%	1%	3%	?	-21%	4%
15	CCOC(=O)c1cc(S(=O)(=O)N2CCN(c3ccccc3OC)CC2)[nH]n1	-1.1%	-1%	·	1%[46.1 µM]	·	·	0%	·
16	COCc1ccc(C(=O)NC2CC(C)(C)Cc3c2cnn3-c2ccc(C)cc2)o1 (centres undefined)	·	·	8%	-25%	2%	-15%	-2%	4%
17	CCOc1c(Br)cc(/C=C2\N=C(C)OC2=O)cc1Br	·	·	-2%	·	11%	·	?	2%
18	CNCCCOc1cccc(OC(C)C)c1	-2.5%	7%	-6%	-1%	-1%	?	-10%	-10%
19	CCOC(=O)c1c(N)n(-c2ccc(C)c(C)c2)c2nc3ccccc3nc12	1.7%	1%	·	?	·	·	0%	·
20	N#C/C(=C\c1ccc(OCc2ccc(Cl)cc2Cl)cc1)c1nc2ccccc2[nH]1	2.3%	-11%	·	-1%[46.1 µM]	·	·	-27%	·
21	CC(=O)Nc1ccc(NC(=O)c2sc3nc4c(c(-c5ccc(C)cc5)c3c2N)CCC4)cc1	-9.2%	?	5%	·	-5%	7%	?	-2%
22	O=C(NNS(=O)(=O)c1ccccc1)Nc1ccc(F)cc1	·	·	-1%	·	-4%	·	24%	-4%
23	C/C(=N/NC(=O)CN1CCN(Cc2ccccc2Cl)CC1)c1ccco1	·	·	3%	-3%[46.1 µM]	-3%	-4%[46.1 µM]	-3%	-1%
24	COc1cccc(-c2c(C(=O)N/N=C(\C)c3ccc(Cl)s3)nnn2-c2nonc2N)c1	·	·	14%	·	-16%	·	-24%	10%
25	CN1C2C(Br)CCCCN2c2ccc(F)cc2S1(=O)=O (centres undefined)	·	·	13%	·	-28%	?	31%[activator]	·
26	CC1CCn2c(nc3cc(C(=O)NCc4ccccc4)ccc32)C1 (centres undefined)	1.5%	-2%	·	26%[46.1 µM]	·	·	41%[activator]	·
27	Cc1ccc(OCC(=O)N(Cc2cccc(F)c2)C2CCS(=O)(=O)C2)cc1 (centres undefined)	·	·	-6%	·	9%	·	-11%	7%
28	O=c1[nH]c(=S)n(-c2ccccc2)c(O)c1/C=N/N1CCCCC1c1cccnc1 (centres undefined)	·	·	4%	1%[46.1 µM]	-7%	-2%[46.1 µM]	6%	-5%
29	O=C(Nc1ccccc1Cl)c1sccc1-c1ccccc1	·	·	-78%	?	-9%	?	-9%	-4%
30	Cc1ccccc1Cn1cc(NC(=O)CSc2nc3c(c(C(F)(F)F)n2)CCc2ccccc2-3)cn1	-2.0%	?	16%	6%	3%	?	-23%	-1%
31	Cc1cc(C)n(C(=O)COc2c(C)cccc2C)n1	4.5%	6%	-5%	-5%	-28%	26%	10%	2%
32	CC1(C)C[C@H]2C=C(C=O)[C@]3(C=O)C[C@]3(C)[C@H]2C1	-7.7%	-11%	-37%	3.7µM*	4%	?	25µM*	-75%
33	CCC(=O)c1ccc(OCC(=O)OCC(=O)c2cc(C)n(C)c2C)cc1	·	·	-12%	21%	-12%	4%	-22%	3%
34	O=C(NCc1nc2ccccc2[nH]1)c1ccc(S(=O)(=O)N2CCOCC2)cc1	1.2%	0%	0%	4%	-13%	-5%&-5%	3%	3%
35	COc1ccc(NC(=O)CSc2nc3ccccc3c(=O)n2CCCC(=O)NCC2CCCO2)c(OC)c1 (centres undefined)	·	·	7%	·	3%	·	6%	26%
36	CC(O)CNCCCOc1cccc(Oc2ccccc2)c1 (centres undefined)	·	·	-1%	-6%[46.1 µM]	12%	?	-13%	0%
37	C=CCn1c(COc2cccc(C)c2)nnc1SCn1nnc2ccccc2c1=O	-3.0%	-5%	-5%	19%	-3%	12%	-1%	8%
38	O=C(CNC(=O)c1ccccc1Br)N/N=C/c1ccc(O)cc1	·	·	·	6%	5%	0%[46.1 µM]	2%	-3%
39	CCN(CC)CCN(C(=O)C1CCCCC1)c1nc2cc3c(cc2s1)OCO3	·	·	-4%	·	3%	·	-29%	-5%
40	CCOc1ccc(NC(=O)CN2C(=O)CCSc3ccc(S(=O)(=O)N4CCCC4)cc32)cc1	-0.3%	-6%	-11%	21%[46.1 µM]	5%	·	?	2%
41	CCN(c1ccc(Cl)cc1)S(=O)(=O)c1nnc(NC(=O)C2CCCCC2)s1	-1.6%	1%	·	4%[46.1 µM]	·	·	-18%	·
42	CC(C)Cc1nnc(NC(=O)CCC(=O)NC2CCCC2)s1	·	·	2%	·	0%	·	-9%	0%
43	Cc1ccc2cc(C#N)c(NCCNC(=S)NCCCN3CCOCC3)nc2c1	·	·	6%	·	3%	·	-3%	-1%
44	O=C(OCC(=O)N1CCN(C(=O)c2ccco2)CC1)c1ccccc1	·	·	·	7%	18%	-2%[46.1 µM]	62%[activator]	-1%
45	CCCN(CC(=O)Nc1ccccc1C)CC(=O)Nc1ccc(Br)cc1F	·	·	-7%	·	11%	·	-1%	-6%
46	CCOc1ccccc1NC(=O)Cn1nnc2sc3c(c2c1=O)CCC(C(C)(C)C)C3 (centres undefined)	-2.0%	-16%	·	24%[46.1 µM]	·	?	-5%	·
47	CC(C)c1nnc(SCC(=O)N2CCN(C(=O)c3ccco3)CC2)n1N	·	·	·	1%	1%	10%[46.1 µM]	-2%	2%
48	N#Cc1cccc(NC(=O)CCc2ccc(S(=O)(=O)N3CCOCC3)cc2)c1	·	·	·	9%[46.1 µM]	3%	8%[46.1 µM]	-23%	2%
49	COCCNc1ncnc2c1nc1n2CCCC1	·	·	-3%	·	-2%	·	-21%	-1%
50	CC12CCC(=O)N1C(C(=O)N1CCN(S(=O)(=O)c3ccc(Br)cc3Cl)CC1)CS2 (centres undefined)	·	·	·	-20%	10%	-21%[46.1 µM]	-24%	-1%
51	COc1ccccc1NC(=O)C(Cc1ccccc1)NS(=O)(=O)c1cccc2nsnc12 (centres undefined)	-5.3%	-13%	·	?	·	6%[46.1 µM]	26%	·
52	CC(C)CN1C(=O)C(=O)N(CC(=O)c2ccc3c(c2)OCO3)C1=O	·	·	·	11%	-5%	?	-13%	1%
53	Cc1ccc(CN2[C@@H](CC3CCCCC3)COCCS2(=O)=O)cc1	·	·	5%	·	2%	·	-23%	-4%
54	CC12CCC(C(=O)N/N=C/c3ccc(O)cc3O)(OC1=O)C2(C)C (centres undefined)	·	·	-2%	?	5%	?	5%	10%
55	COc1ccc(NC(=O)N2C[C@@H]3C[C@@H](C2)c2cccc(=O)n2C3)c(OC)c1	·	·	9%	·	-10%	·	-24%	9%
56	CCOc1ccccc1/C=C(/NC(=O)c1ccccc1)C(=O)NCC(=O)O	-0.6%	2%	0%	?	5%	?	33%[activator]	-4%
57	Cc1ccc(-c2nnc(Nc3ccc(CC(N)=O)cc3)c3ccccc23)cc1S(=O)(=O)NCC1CCCO1 (centres undefined)	·	·	-1%	-10%	-6%	3%[46.1 µM]	35%[activator]	0%
58	CSCCNC(C)=O	7.8%	5%	4%	·	·	7%	·	5%
59	Cc1oc(-c2ccccc2F)nc1CS(=O)(=O)CC(=O)N1CCN(c2ccccc2)CC1	-1.1%&1.8%	?	0%	6%[46.1 µM]	-4%	-6%[46.1 µM]	25µM*	-10%
60	O=C(NCc1ccccc1Br)c1ccc2c(c1)OCCO2	·	·	-12%	19%	13%	18%	79%[activator]	-3%

Following part.
#	Molecule	Cruzain inh Det	Cruzain noTriton	NS1 function inh	Lassa entry inh	RE007 growth inh	MARV entry inh	2A StopGo	SARS PLpro yeast
61	Cc1ccc(-c2noc(-c3ccccc3Br)n2)cc1	2.8%	-6%	-36%	?	?	?	-12%	-2%
62	CN=c1sc2ccccc2n1CC(O)COc1ccccc1 (centres undefined)	-2.6%	-1%	-16%	-33%	-7%	?	0%	2%
63	Cc1nc(N2CCN(C(=O)c3ccco3)CC2)nc2c1C(=O)CC(C)C2 (centres undefined)	·	·	-14%	-37%[46.1 µM]	13%	1%[46.1 µM]	-1%	27%
64	CCc1ccc(-c2csc(NC(=O)C3CC(=O)N(c4ccc5c(c4)OCCO5)C3)n2)cc1 (centres undefined)	-1.9%	-14%	?	?	-18%	?	?	-11%
